Vaccinia Venus – qHTS for Stage-Specific Inhibitors of Vaccinia Orthopoxvirus: Venus Reporter Primary qHTS. 330,000 compounds, 0.46% hits. Vaccinia virus Venus reporter expression, fluorescence. Potency, µM (series often up to 36.5 µM), without a hit: top-dose activity change, negative = inhibition, usual class: inhibitors. AID 720580, 2013; active means well fitted inhibition curve with a large enough effect; inconclusive means small, poorly fitted or top-dose-only effect; inactive means no such curve, though single readings can be large or run the other way; tested in A549 cells; also: nearly all actives have a fitted effect of over 30% in size; inactives centre near -10
VACV mCherry inh – qHTS for Stage-Specific Inhibitors of Vaccinia Orthopoxvirus: mCherry Reporter Primary qHTS; Vaccinia virus mCherry reporter infection, fluorescence; about a quarter of the inactives have no number; Potency, µM (titrated, usually from 36.5 µM), inactives show top-dose activity change, negative = inhibition, most hits filed as inhibitors; 310,000 compounds, 0.63% hits; AID 720579, 2013; active = well fitted inhibition curve with a large enough effect; inconclusive = small, poorly fitted or top-dose-only effect; inactive = no such curve, though single readings can be large or run the other way; tested in A549 cells; also: nearly all actives have a fitted effect of over 35% in size; inactives centre near -10
* = called active by the depositor; i = inactive; ? = inconclusive; nt = no result given; [ ] = another dose, or the depositor's remark. % is scaled to controls: 0 for no effect and ±100 for the full control effect; potency is read from the fitted curve at half-maximal effect.

Under each structure – Vaccinia Venus | VACV mCherry inh
1) COc1ccc(CCNC(=O)CC2SC(=Nc3cc(C)cc(C)c3)NC2=O)cc1OC (stereo not drawn)
    -17% | i
2) Nc1ccn(CC(=O)N2CCN(c3ccccn3)CC2)c(=O)n1
    -12% | i
3) COc1ccc(-c2noc(CSc3nc4ccccc4c(=O)n3-c3ccccc3)n2)cc1
    -3% | -17%
4) O=C1CC2(CON=C2c2ccc(F)cc2)C(=O)N1c1ccc(F)cc1 (stereo not drawn)
    -2% | nt
5) O=C(Nc1ccc(Cl)cc1)OCCN1CCOCC1
    0% | i
6) COc1ccc(-n2nc3cc(C)c(N)c(Br)c3n2)cc1
    -5% | i
7) CC(C)C(NS(=O)(=O)c1cccs1)C(=O)N(C)Cc1ccccc1 (stereo not drawn)
    -18% | -20%
8) O=C(O)c1ccccc1OCc1nc2ccccc2s1
    -8% | -14%
9) Cc1ccccc1-n1c(C)nc2ccccc21
    -15% | -23%
10) Cn1c2c(c(=O)n(C)c1=O)C(NC(=O)c1ccco1)(C(F)(F)F)C(=O)N2 (stereo not drawn)
    -8% | -13%
11) CCOC(=O)C1CCCN(C(=O)c2[nH]c3ccccc3c2Sc2ccc(Cl)cc2)C1 (stereo not drawn)
    -22% | -26%
12) COc1cc(=O)n2c(c1C(=O)N(C)Cc1nonc1C)CCN(Cc1ccc(F)cc1)CC2
    -8% | -14%
13) Cc1cc(Br)ccc1NC(=O)CNC(=O)CSc1ncccn1
    -9% | -17%
14) COCCCNC(=O)Cn1c(=O)n(Cc2ccccc2Cl)c(=O)c2cc(OC)c(OC)cc21
    2%[7.34 µM] | -2%[7.34 µM]
15) COCCN(C(=S)Nc1cccc(C)c1)C(C)c1cccs1 (stereo not drawn)
    -17% | -2%

Entries of single compounds, looked up by structure.
Nc1ccn(CC(=O)N2CCN(c3ccccn3)CC2)c(=O)n1 as listed: Vaccinia Venus = -12%; VACV mCherry inh = i
COc1ccc(CCNC(=O)CC2SC(=Nc3cc(C)cc(C)c3)NC2=O)cc1OC (stereo not drawn) as listed: Vaccinia Venus = -17%; VACV mCherry inh = i

Reformatted screen by screen: 3 of the compounds above.
(2) Nc1ccn(CC(=O)N2CCN(c3ccccn3)CC2)c(=O)n1
(10) Cn1c2c(c(=O)n(C)c1=O)C(NC(=O)c1ccco1)(C(F)(F)F)C(=O)N2 (stereo not drawn)
(15) COCCN(C(=S)Nc1cccc(C)c1)C(C)c1cccs1 (stereo not drawn)

assay / compound | 2 | 10 | 15
Vaccinia Venus | -12% | -8% | -17%
VACV mCherry inh | i | -13% | -2%

Continued:
Under each structure – Vaccinia Venus | VACV mCherry inh
16) CCCCn1c(N)c(N(CCOC)C(=O)CCc2ccc(OC)cc2)c(=O)[nH]c1=O
    -11% | -13%
17) CCN(CC)S(=O)(=O)c1ccc(NC(=O)c2cc(-c3ccccc3)nc3ccccc23)cc1
    -9% | i
18) Cc1cc(C(=O)N/N=C/c2cccn2C)no1
    -11% | -14%
19) COC(=O)[C@]1(Cc2ccccc2)N[C@H](c2ccc(-c3ccc(Cl)c(Cl)c3)cc2)[C@@H]2C(=O)N(C)C(=O)[C@@H]21
    -24% | -6%
20) CC(C)CNS(=O)(=O)c1ccc(CCC(=O)Nc2cc(Cl)ccc2Oc2ccccc2)cc1
    ? | nt
21) CCOC(=O)CCC(=O)O[C@H]1C(O[C@@H]2C(C)[C@H](O[C@H]3C[C@@](C)(OC)C(O)C(C)O3)C(C)C(=O)OC(CC)[C@@](C)(O)C(O)[C@H](C)C(=O)C(C)C[C@]2(C)O)OC(C)CC1N(C)C (stereo partly drawn)
    -9% | -12%
22) N#Cc1c(F)cccc1NCCCn1ccnc1
    -10% | i
23) O=C(NCc1ccco1)c1cnn2cccnc12
    -20% | i
24) CCc1ccccc1NC(=O)C1CCCN1C(=O)Nc1ccc(C)cc1 (stereo not drawn)
    -4% | -14%
25) COc1cccc(NC(=O)C2CC(=O)n3cnnc3S2)c1 (stereo not drawn)
    -4% | 1%
26) CN1CCN(S(=O)(=O)c2ccc(C3CCCCC3)cc2)CC1
    -17% | -19%
27) Cc1ccc(Cc2c(C3CCCCC3)nc3c(C)cc(Br)cn23)cc1
    -15% | 3%
28) O=C(CCC1CCCCC1)NCc1ccccn1
    -8% | -14%
29) O=C1CCCC2=C1C(c1ccsc1)CC(=O)N2c1nnc(SCc2ccccc2)s1 (stereo not drawn)
    -6% | -3%
30) Cc1cc(C)c2c(=O)c3c(oc2c1)C(=O)N(Cc1ccco1)C3c1ccc(F)cc1 (stereo not drawn)
    16% | 25%
31) Cc1c(C)c2c(OCC(=O)N[C@@H](Cc3ccccc3)C(=O)O)cc3c(c2oc1=O)CCC(C)(C)O3
    -9% | -6%
32) C/C(=C(\C#N)C(=O)NCc1ccccc1)N(C)C
    -19% | nt
33) COc1ccc(C(=O)N(C)c2ccccc2C(=O)NCCc2ccccc2)cc1
    -10% | -4%
34) Cc1nnc2ccc(N3CCC4(CC3)OCCO4)nn12
    2% | -8%
35) CC(=O)c1cccc(N(C(=O)Cn2nnc3ccccc32)C(C(=O)NC2CCCCC2)c2cn(C)nc2C)c1 (stereo not drawn)
    -5% | -13%
36) N#CC1(c2ccccc2)CCCN1C(=O)c1ccco1 (stereo not drawn)
    -1% | -6%
37) Cc1ccc(S(=O)(=O)NCC(c2ccco2)N2CCc3ccccc3C2)cc1 (stereo not drawn)
    -23% | -12%
38) O=[N+]([O-])c1cc(C(F)(F)F)ccc1SCC(O)CO (stereo not drawn)
    -22% | -19%
39) CCc1ccc(NC(=O)CC2C(=O)N(c3cccc(C)c3)C(=O)N2Cc2cccs2)cc1 (stereo not drawn)
    -18% | -14%
40) O=C(c1cccs1)N(Cc1cccnc1)c1nc2c(Cl)cccc2s1
    0% | i
41) Cc1nc2ccccn2c(=O)c1NC(=O)c1ccc(C(F)(F)F)cc1
    -10% | -19%
42) O=C(N/N=C/c1ccc(Br)cc1)c1cc[n+](Cc2ccccc2)cc1
    -15% | i
43) COc1ccc(OCC(=O)Nc2nc3cc4c(cc3s2)OCCO4)cc1
    4% | -13%
44) COc1c2c(cc3oc(=O)c4c5ccc(O)cc5oc4c13)OC(C)(C)CC2
    -29% | ?
45) COc1ccc(C(CNC(=O)c2cccc(S(=O)(=O)N3CCc4ccccc43)c2)N(C)C)cc1 (stereo not drawn)
    -22% | -18%
46) O=S(=O)(N/N=C\c1cccnc1)c1ccccc1
    -7% | -14%
47) O=C(CSc1nc2ccccc2c(=O)[nH]1)Nc1ccc(S(=O)(=O)N2CCCC2)cc1
    -14% | -25%
48) CSc1ncccc1C(=O)OCC(=O)c1ccc2c(c1)NC(=O)CO2
    1%[7.34 µM] | 0%[7.34 µM]
49) CC(C)(C)OC(=O)C[C@H]1C/C=C\C[C@@H](CC(=O)N(CCO)Cc2ccccc2)C(=O)NCCOC1=O
    -11% | i
50) Cc1noc(C)c1COC(=O)c1ccc(N(C)C)cc1
    -14% | i
51) CC(=O)Nc1ccc(Oc2nc(C)cc(C)n2)cc1
    -13% | nt
52) Cc1[nH]c2ccccc2c(=O)c1C(=O)/C=C/c1ccccc1
    ? | 3.2µM*
53) CN(Cc1ccccc1)C(=O)[C@@H]1CCCN1C(=O)[C@@H]1CCCN1C(=O)c1cccc2ccccc12
    -13% | i
54) COc1cc(=O)n2c(c1C(=O)NC(C)c1ccco1)CCN(C(=O)c1ccnc(Cl)c1)CC2 (stereo not drawn)
    -8% | -12%
55) CC(=O)Nc1ccc(C2=NN(c3ccccc3)C(c3cccs3)C2)cc1 (stereo not drawn)
    -19% | ?
56) Cc1ccc(-c2noc(-c3ccc(NC4CCCC4)c([N+](=O)[O-])c3)n2)cc1
    -12% | 2%
57) N=C1C(c2nc3ccccc3[nH]2)=C(O)CN1c1ccccc1
    ? | nt
58) CC(C)Sc1nc2sc3c(c2c(=O)n1-c1ccccc1)CCCC3
    -3% | -16%
59) O=c1c2cc3c(=O)n(CC4CCCO4)c(=O)c3cc2c(=O)n1CC1CCCO1 (stereo not drawn)
    -15% | -19%
60) O=C1CC(c2ccccc2)=Nc2ccc(Br)cc2N1
    -25% | -27%
61) CC(C)N=C(NS(=O)(=O)c1ccccc1)C(Cl)(Cl)Cl
    11µM* | 14µM*
62) C[C@H](CO)N1C[C@H](C)[C@@H](CN(C)C(=O)NC2CCCCC2)Oc2ccc(NS(=O)(=O)c3cccs3)cc2C1=O
    -11% | i
63) Cc1ccc(S(=O)(=O)N2CCN(c3c([N+](=O)[O-])cc(C(F)(F)F)cc3[N+](=O)[O-])CC2)cc1
    -14% | i
64) CC(OC(=O)C1=COCCO1)C(=O)NC1(C#N)CCCCC1 (stereo not drawn)
    0% | i
65) Cc1ccccc1/C=N\NC(=O)c1ccc(Cn2cccn2)o1
    5% | -1%
66) O=C(Nc1ccncc1)C1CCN(S(=O)(=O)c2ccc(Cl)cc2)CC1
    -7% | -1%
67) Cn1c(N)c(C(=O)COC(=O)c2ccc3c(c2)OCCO3)c(=O)n(C)c1=O
    2% | -6%
68) COc1ccc(CNC(=O)Nc2cc(C)ccc2C)cc1
    -11% | i
69) Cc1ccc(C)c(CN2C(=O)c3ccccc3S(=O)(=O)c3ccc(C(=O)N4CCc5ccccc54)cc32)c1
    -14% | -9%
70) CC(C)(C)C(=O)N1Cc2cc(-c3ccccc3)ccc2-n2nncc2C1
    1% | 6%
71) CCOc1ccc(S(N)(=O)=O)cc1-c1nc2c(C(C)(C)C)nn(C)c2c(=O)[nH]1
    -22% | -11%
72) COc1ccc(S(=O)(=O)Nc2ccc(S(=O)(=O)N3CCOCC3)cc2)cc1C
    0% | 2%
73) COC(=O)CC1SC(=O)NC1=Nc1ccc(O)cc1 (stereo not drawn)
    -1% | -10%[1.46 µM]
74) COc1ccc(C(=O)N=c2nc3ccccn3s2)cc1
    -5% | i
75) CCC(C)(C)NC(=O)C(c1ccc(OC)cc1)N(C(=O)CCC(=O)Nc1cc(C)on1)c1ccc(OC)c(OC)c1 (stereo not drawn)
    -12% | -22%

(listing goes on)
Under each structure – Vaccinia Venus | VACV mCherry inh
76) CCCCCC(=O)N/N=C(\C)c1ccccn1
    ? | ?
77) Cc1cc(NC(=O)c2c(Cl)c(C)nn2C)no1
    -10% | -2%
78) Cc1occc1C(=O)Nc1cccc(-c2nc(CNC(=O)c3cc(-c4ccccc4)n[nH]3)c(C)o2)c1
    -23% | -24%
79) CCOC(=O)C1=C(OCc2ccc(Cl)cc2)C2C=C(C)C=CC2N=C1 (stereo not drawn)
    -7% | -13%
80) O=C(Cc1c(O)c2ccccc2[nH]c1=O)NCc1ccccc1F
    -4% | nt
81) COc1cc(OC)cc(C(=O)NCCCCCCNC(=O)c2cc(OC)cc(OC)c2)c1
    -28% | -19%
82) COc1cccc(C(NC(C)=O)c2nc(-c3ccc(N(C)C)cc3)cs2)c1 (stereo not drawn)
    -8% | i
83) Cc1ccc(C(=O)N2CCN(C)CC2)cc1S(=O)(=O)N1CCOCC1
    -18% | i
84) Cc1cccc(NC(=O)CSc2nc(-c3ccccc3)c(C#N)c(=O)[nH]2)c1C
    -12% | i[1.46 µM]
85) CCCCCCCC(=O)N/N=C/c1ccncc1
    -4% | -9%
86) COc1cc(CNC(=O)c2cc(-c3cc(Cl)ccc3C)n[nH]2)cc(OC)c1
    -13% | -5%
87) CC(C)CN(C(=O)C1=COCCO1)c1c(N)n(Cc2ccccc2)c(=O)[nH]c1=O
    -12% | -5%
88) Cc1ccc2c(=O)cc(C(=O)NCc3ccccc3)oc2c1
    -12% | -7%
89) COc1ccc(-n2cc(-c3ccc4c(c3)OCO4)n(CC(=O)Nc3cc(Cl)ccc3C)c2=O)cc1
    ? | ?
90) CCN1CCC2(CC1)N=C(c1ccc(F)cc1)C(=S)N2C(=O)c1ccc(C)cc1
    ? | ?
91) C[C@@]12CCC3[C@@](CCC4[C@@]3(C)CCC[C@@]4(C)C(=O)Nc3ccc(Cl)cc3)(CC1=O)C2 (stereo partly drawn)
    -8% | i
92) CC(Sc1nc2cc(Cl)ccc2s1)C(=O)Nc1ccc2c(c1)OCO2 (stereo not drawn)
    7% | -1%
93) Clc1cccc(-n2ncc3c(NCCCN4CCOCC4)ncnc32)c1
    -10% | -12%
94) COc1cc(CCC(=O)Nc2cc(Cl)ccc2N2CCN(C)CC2)cc(OC)c1OC
    -12% | -9%
95) CCOc1ccnc(OCC)c1Br
    -9% | -11%
96) c1ccc(C(c2ccccc2)c2cccnc2)cc1
    -8% | i
97) CN(C)CCNC(=O)C1CCN(S(=O)(=O)c2ccc3ccccc3c2)CC1
    -21% | -10%
98) CC(C(=O)NCC1(c2ccccc2)CCCC1)N1CCCC1 (stereo not drawn)
    -8% | -12%
99) Cn1c(=O)c2c(nc(CN3CCN(Cc4ccccc4)CC3)n2Cc2cccc(Cl)c2)n(C)c1=O
    -15% | -3%
100) CCOC(=O)C1CCN(C(=O)c2ccc(OCC(=O)Nc3cccc(C(F)(F)F)c3)cc2)CC1
    -1% | i
101) COc1cc(C(=O)OCC(=O)NCCC2=CCCCC2)cc(OC)c1OC
    -19% | 0%
102) CCCCN(CCCC)C(=O)c1cn(CC)c2cc(N3CCN(C)CC3)c(F)cc2c1=O
    -7% | -3%
103) Cc1cc(NC(=O)CSc2ncc(C(=O)Nc3ccc(Cl)cc3)c(=O)n2C)no1
    -14% | -1%
104) O=C1OC(N2CCN(C/C=C/c3ccccc3)CC2)c2ccccc21 (stereo not drawn)
    -6% | i
